Screening data from PubChem.
MT1-MMP act inh – blockers of MT1-MMP proenzyme processing, primary screen, HT1080 RFP-PRO-GFP cells, GFP/RFP fluorescence. Matrix metalloproteinase-14 (Homo sapiens), P50281. GFP/RFP ratio change, % at 20 µM. AID 651647, 2012. 360,000 compounds, 0.061% hits. GFP/RFP ratio fluorescence, overnight; percent of plate control window, DMSO zero;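 active means GFP/RFP ratio change of at least 30% with cell ATP level not reduced by more than half and red fluorescence within 50% of control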; further: strong numbers were not always called active
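Assay system – RFP-PRO-GFP reporter HT1080 cells · Compound dosing – single dose of 20 µM compound, 1% DMSO final · Incubation – overnight compound exposure at 37 °C · Measure – GFP/RFP fluorescence ratio · Benchmarks – DMSO wells and RFP-L50D-GFP cells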
CSC inhib – cancer stem cell viability inhibitors, primary screen, luminescence. cancer stem cell-like cells viability. inhibition, % at 7.5 µM. 300,000 compounds, 1.1% hits. AID 2717, 2010;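 active means mean at 75% or more and at least half the replicates too; inconclusive means mean and replicates disagree; tested in HMLE shEcad cells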;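 further: 0% = median of negative and 100% = median of positive control wells; the first replicate is given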
Env fusion inh – inhibitors of HIV-1 Env-driven cell-cell fusion, primary screen, HeLa-JRFL effector, CEM21 target cells, luciferase; inhibition, % at 12.3 µM; AID 651610, 2012; 360,000 compounds, 1.1% hits;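 active means mean replicate inhibition score of at least 50 and every replicate individually at or above 50; inconclusive means only one of the two criteria met; inactive means mean below 50 and not all replicates reaching 50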;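 further: 0% = plate neutral controls and 100% = maraviroc near 300 nM; one replicate is shown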
eIF4H inh – human eIF4H binding inhibitors, primary screen, translation initiation inhibitor project, biochemical, uHTS, fluorescence polarization; Eukaryotic translation initiation factor 4H (Homo sapiens), Q15056; eIF4H fluorescence polarization binding assay; inhibition, % at 35 µM; 290,000 compounds, 0.94% hits; AID 2012, 2009;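 active means 50% or more with normal probe brightness, or confirmed in later tests; inconclusive means above 50% with abnormal brightness, or retests that disagree; inactive means below 50% or failed in later tests; about a fifth of its hits are not listed in these tables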;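 further: calls also rest on retests at 20 µM and on dose response follow-up; 0% = protein and probe with vehicle and 100% = probe without protein; strong numbers were not always called active; many hits fall short of the cut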
Rce1 inh – yeast Rce1p protease inhibitors, primary screen, biochemical, fluorescence, cell-free homogeneous; 290,000 compounds, 0.27% hits; calls only; yeast membranes, quenched prenylated peptide cleavage fluorescence; AID 2563, 2010;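 active means fall in fluorescence gain of 50% or more versus controls, with final raw signal at or below 3038400; inconclusive means same 50% fall but final raw signal above 3038400; inactive means fall in fluorescence gain under 50%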;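 further: plate controls were neutral control wells for no effect and wells lacking membranes for full effect; tested at 10 µM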
Target sequence (Q03530 whole entry, looked up): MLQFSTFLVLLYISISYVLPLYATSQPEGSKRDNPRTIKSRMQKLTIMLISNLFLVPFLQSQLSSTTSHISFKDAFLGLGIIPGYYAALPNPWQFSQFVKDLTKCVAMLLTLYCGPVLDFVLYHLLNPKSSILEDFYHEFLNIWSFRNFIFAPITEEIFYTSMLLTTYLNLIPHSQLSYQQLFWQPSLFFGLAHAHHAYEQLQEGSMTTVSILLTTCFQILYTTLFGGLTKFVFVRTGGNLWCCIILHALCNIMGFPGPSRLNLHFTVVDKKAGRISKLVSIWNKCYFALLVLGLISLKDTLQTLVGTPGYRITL
Yeast UUG start – modulators of yeast start codon fidelity, primary screen, whole organism, S. cerevisiae, single point, plate reader; S. cerevisiae UUG-firefly luciferase reporter, luminescence/redox ratio; activity score, % at 18.7 µM; 350,000 compounds, 0.13% hits; AID 602363, 2012;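 active means replicate mean at a twofold rise or more, about +100% in these data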;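 further: firefly luciferase made from a UUG start codon reports start codon fidelity; reporter light over untreated wells divided by growth signal over untreated wells; some hits fall short of that in this replicate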
PABP polyA inh – PABP poly(A) RNA binding inhibitors, primary screen, biochemical, fluorescence polarization, uHTS; AID 2014, 2009; inhibition, % at 35 µM; 290,000 compounds, 1% hits; Polyadenylate-binding protein 1 (Homo sapiens), P11940;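 active means 50% or more with normal probe brightness, or confirmed in later tests; inconclusive means above 50% with abnormal brightness, or retests that disagree; inactive means below 50% or failed in later tests; about a fifth of its hits are not listed in these tables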;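 further: calls also rest on retests at 20 µM and on dose response follow-up; controls were probe without protein and protein plus probe with vehicle; some compounds called inactive have numbers as strong as hits; many hits fall short of the cut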
Target sequence (P11940 whole entry, looked up): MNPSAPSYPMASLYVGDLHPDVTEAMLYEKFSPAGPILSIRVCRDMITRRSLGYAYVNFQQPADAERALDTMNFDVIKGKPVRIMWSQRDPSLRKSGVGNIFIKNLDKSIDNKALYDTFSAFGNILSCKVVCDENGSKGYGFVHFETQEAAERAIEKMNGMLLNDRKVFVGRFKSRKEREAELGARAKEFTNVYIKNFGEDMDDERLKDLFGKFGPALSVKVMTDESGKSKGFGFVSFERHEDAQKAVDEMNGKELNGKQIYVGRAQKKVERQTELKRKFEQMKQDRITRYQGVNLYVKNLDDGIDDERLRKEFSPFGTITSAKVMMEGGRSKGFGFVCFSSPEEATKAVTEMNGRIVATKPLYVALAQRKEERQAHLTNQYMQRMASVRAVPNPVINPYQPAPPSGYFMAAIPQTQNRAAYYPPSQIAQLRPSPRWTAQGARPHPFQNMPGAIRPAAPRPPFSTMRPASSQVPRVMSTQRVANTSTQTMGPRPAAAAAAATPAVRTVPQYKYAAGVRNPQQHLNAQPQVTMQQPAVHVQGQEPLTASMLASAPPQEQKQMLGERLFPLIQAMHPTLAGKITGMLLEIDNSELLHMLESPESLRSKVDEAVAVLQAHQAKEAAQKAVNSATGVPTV
MT1-MMP act inh RFP – recorded beside MT1-MMP act inh, whose call it bears; RFP signal change, %; measured here: RFP expression control read;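 0 = vehicle wells; hits needed this value within 50% of zero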
Starred values were filed as active, the others as inactive; i = inactive; ? = inconclusive; nt = no result given; & = joins results of further samples. Only part of the results is shown; rates above refer to the full screens.

SMILES | MT1-MMP act inh | MT1-MMP act inh RFP | CSC inhib | Env fusion inh | eIF4H inh | Rce1 inh | Yeast UUG start | PABP polyA inh
COc1cc(N=Cc2c(O)c3ccccc3oc2=O)c(OC)cc1Cl | -12 | -3 | 0 | 0 | ? | i | -7 | ?
O=C(CSc1ccc2c(c1)OCCO2)N1CCN(c2ccccc2)CC1 | -3 | 0 | 3 | nt | nt | nt | -13 | nt
CCOC(=O)c1sc(NC(=O)COc2ccc3c(c2)OCO3)nc1C | 4 | 2 | -2 | -18 | 2 | i | -11 | 7
COc1ccc(C2OC(=O)CC2C(=O)NC2CCCC(C)C2C)cc1OC (configuration not stated) | -1 | -1 | 1 | -43 | -8 | i | nt | -8
O=C(N/N=C/c1ccco1)c1ccc(OCc2ccccc2)cc1 | 0 | 3 | -7 | -6 | -4 | i | nt | -10
O=C1CN(CC(=O)Nc2ccc(Cl)cc2)CCN1 | -1 | -2 | -8 | 2 | 2 | i | -18 | 1
CCOC(=O)N(C)c1c(CC)nc2c(OCCOc3ccccc3)cccn12 | -4 | 2 | nt | 5 | nt | nt | -15 | nt
CCOC(=O)C1=C(C)NC(C)=C(C(=O)OCC)C1c1ccc([N+](=O)[O-])s1 | -1&0 | -6&-2 | -12 | 5&-30 | -6 | i | -14&6 | -2
COC(=O)c1ccc(CSc2nnc3ccccn23)o1 | -6 | 1 | 9 | nt | -7 | i | -9 | 3
O=C(Oc1ccccc1)c1ccc(COC(=O)c2cnccn2)cc1 | 6 | 4 | -20 | -52 | -19 | i | -8 | -9
Cc1ccc(NC(=O)/C(=C/c2cccs2)NC(=O)c2ccco2)c(C)c1 | -1 | 1 | nt | nt | 7 | i | nt | 8
Cc1ccc(CNCc2ccc3c(c2)OCO3)c(C)c1 | 1 | 2 | -7 | -6 | 18 | i | -19 | 6
O=C(NCC1CCCO1)c1ccc(Oc2ccc([N+](=O)[O-])cc2)cc1 (configuration not stated) | 4 | -10 | 5 | 4 | -2 | i | -4 | -2
COC(=O)c1ccc(CNC(=O)C2CCC(=O)N(CCN3CCOCC3)C2)cc1 (configuration not stated) | -1 | 2 | -3 | 12 | -12 | i | -17 | -13
Cc1cccc(NC(=O)CSc2nnc(CNC(=O)c3ccco3)o2)c1 | 1 | 2 | -13 | 4 | -2 | i | -2 | 3

Next records follow.
SMILES | MT1-MMP act inh | MT1-MMP act inh RFP | CSC inhib | Env fusion inh | eIF4H inh | Rce1 inh | Yeast UUG start | PABP polyA inh
CCn1c(C)c2c(C)nnc(C)c2c1C | 2 | 6 | nt | nt | 16 | i | 4 | 6
O=C1CN(C(=S)NC(=O)c2ccc(-c3ccccc3)cc2)CCN1 | -4 | -4 | -4 | -39 | 7 | i | nt | -6
Cc1ccc(NC(=O)c2ccccc2OCC(=O)Nc2cccc(Cl)c2C)nc1 | nt | nt | -3 | nt | 2 | i | nt | -6
O=C(NCCc1ccc(F)cc1)c1cc(-c2ccncc2)nc2ccccc12 | nt | nt | nt | nt | 2 | i | nt | -3
CCOC(=O)c1cccc(NC(=O)CSc2nnc(-c3ccncc3)n2CCCOC)c1 | -2 | -4 | 6 | -2 | -1 | i | -13 | 4
CC(=O)c1c(C)[nH]c(C(=O)OC2CCOC2=O)c1C (configuration not stated) | 2 | 7 | -2 | 9 | -15 | i | -19 | -7
COc1ccc(CC(NC(C)=O)C(=O)NC2CCN(C(=O)c3ccccc3F)CC2)cc1 (configuration not stated) | 1 | 3 | -8 | 13 | -6 | i | -2 | 1
S=c1[nH]nc(CCCc2n[nH]c(=S)o2)o1 | 0 | 1 | -10 | -6 | -5 | i | nt | 5
CCOc1ccccc1N1C(=O)c2ccc(C(=O)Nc3cccnc3)cc2C1=O | -1 | -3 | -6 | -21 | -9 | i | -23 | 3
N#Cc1cccc(C(=O)Nc2ccc(S(=O)(=O)Nc3nccs3)cc2)c1 | -6 | -3 | 15 | nt | nt | nt | -8 | nt
COc1ccc(N(C)C(=O)CCC(=O)Nc2ccc3nc(N4CCOCC4)cc(C)c3c2)c(OC)c1 | 2 | -2 | -8 | -45 | -8 | ? | 0 | -12
O=C(Nc1ccnn1C1CCN(C/C=C/c2ccccc2)CC1)c1cccc(F)c1 | -1 | -5 | -2 | 11 | 3 | i | 0 | 4
CCc1nc2ccccc2c(C(=O)NCc2ccccc2)c1C | 0 | -1 | 1 | -8 | 7 | i | nt | -3
O=C(/C=C/c1ccc(Cl)cc1)NC(=S)Nc1ccc(CN2CCOCC2)cc1 | -5 | -2 | 33 | -9 | -4 | nt | nt | -8
Cc1ccc(S(=O)(=O)NC(=NCC(=O)O)c2ccccc2)cc1 | 4 | 3 | -19 | nt | -6 | i | -8 | 16

The listing continues.
SMILES | MT1-MMP act inh | MT1-MMP act inh RFP | CSC inhib | Env fusion inh | eIF4H inh | Rce1 inh | Yeast UUG start | PABP polyA inh
C=CCSc1ncccc1C(=O)NCCc1ccccc1 | 0 | 1 | -11 | -1 | -6 | i | -9 | 5
C=CCn1c(C2CC2)n[nH]c1=S | -3 | -1 | -3 | 6 | 1 | i | nt | 6
O=C(NCCC1=CCCCC1)c1cccc(S(=O)(=O)N2CCCCC2)c1 | -3 | -6 | -7 | nt | nt | i | -4 | nt
O=C(O)CCN(CCC(=O)O)c1nnc(SCc2ccccc2)s1 | -3 | 1 | -20 | -10 | -2 | i | 0 | 3
NC(=O)C1CCN(CC(=O)Nc2nccs2)CC1 | 0 | 4 | -15 | -2 | -1 | i | -23 | 11
CN(C)C(=O)c1cc(C(=O)c2ccc(C(F)(F)F)cc2F)c[nH]1 | 1 | 1 | nt | 2 | 2 | i | nt | -1
Cc1ccc(-c2[nH]ncc2CN2CCN(C(=O)c3cccs3)CC2)cc1C | 1 | -1 | -10 | -1 | 5 | i | 3 | -7
Cc1oc(-c2ccccc2F)nc1CS(=O)(=O)CC(=O)NCCCN1CC(C)CC(C)C1 (configuration not stated) | 0 | 1 | -5 | 14 | -10 | i | -10 | -1
c1ccc(CCNCCCOc2cccc3ccccc23)cc1 | -2 | -1 | 17 | 12 | 9 | i | -9 | -15
CCc1ccc(CCC(=O)Nc2ccc(OC)cc2)o1 | 0 | 0 | 6 | -44 | -6 | i | -2 | 1
Cn1c(Cc2ccccc2)nnc1SCC(=O)c1cccs1 | 2 | 4 | -10 | nt | 2 | i | nt | 1
COc1ccc(NC(=O)COC(=O)C2CCC2)cc1Cl | -1 | -2 | -8 | nt | -19 | i | -5 | -2
Cc1cccc(N(CC(=O)NC2CCCCC2)C(=O)CCCC(=O)Nc2ccccn2)c1 | 7 | -1 | -12 | nt | 4 | i | 5 | 2
CCCCN(C(=O)c1ccc(-c2ccc([N+](=O)[O-])cc2)o1)c1c(N)n(CCCC)c(=O)[nH]c1=O | -5 | -5 | 3 | -3 | nt | nt | -15 | nt
CC12CCC(C(=O)N(CCC#N)CCC#N)(CC1=O)C2(C)C (configuration not stated) | -2 | -2 | 14 | nt | 6 | i | -2 | 6

The list continues.
SMILES | MT1-MMP act inh | MT1-MMP act inh RFP | CSC inhib | Env fusion inh | eIF4H inh | Rce1 inh | Yeast UUG start | PABP polyA inh
COc1ccc(-c2noc(-c3cc4ccccc4oc3=O)n2)cc1 | nt | nt | -14 | nt | -5 | i | nt | -2
CCOC(=O)C1=C(NC(=S)NC(=O)c2ccccc2)c2ccccc2CC1(C)C | -4 | -5 | 3 | nt | -7 | i | -29 | -8
COC(=O)c1ccc(CSc2ncnc3c2nnn3-c2ccc(OC)cc2)o1 | 7 | -1 | 17 | nt | 6 | i | 1 | 2
COc1ccc(N(C(=O)CS(=O)CC(=O)Nc2ccc(F)cc2)C(C(=O)NC2CCCCC2)c2cccs2)cc1 (configuration not stated) | 3 | 2 | -6 | -4 | 4 | i | nt | -1
Cn1c(CCN2CCCCC2)nc2cc(NC(=O)COc3ccc([N+](=O)[O-])cc3)ccc21 | -1 | -5 | 3 | -8 | 4 | i | -6 | -5
COc1ccc(C(O)c2ncc(-c3ccccc3OC)[nH]2)cc1F (configuration not stated) | 11 | 0 | nt | -10 | nt | nt | -15 | nt
COc1ccc(CCN2CC(O)=C(c3nc(C)cs3)C2=N)cc1OC | -1 | 5 | 7 | 7 | -14 | i | -16 | -5
CN(CCc1ccccn1)C(=O)Nc1ccc(F)cc1 | 1 | -1 | -5 | nt | -8 | i | -16 | -9
O=C(OCc1cc([N+](=O)[O-])cc2c1OCOC2)c1ccc2ccccc2n1 | -3 | -5 | 7 | -6 | 8 | i | nt | 6
COc1ccccc1NC(=O)CN1C(=O)NC(C)(C)C1=O | 5 | 7 | -3 | 19 | -8 | i | -30 | -2
Cc1cccc(CN2CCN(CC(=O)NCc3ccc(F)cc3)C2=O)c1 | 2 | 0 | -6 | -10 | nt | i | -2 | nt
CC(=O)Nc1ccc(C(=O)OCc2ccc(Cl)c(Cl)c2)cc1 | 3 | 1 | nt | -21 | -7 | i | nt | -9
Cc1c(S(=O)(=O)Nc2ccc(Oc3ccccc3)cc2)c(=O)n(C)c(=O)n1C | 0 | 1 | 3 | 13 | 3 | i | -3 | -4
Cc1c(C(=O)N2CCC(C)CC2)cccc1[N+](=O)[O-] | 2 | 0 | nt | -6 | 3 | i | -21 | 4
CN1CCN(c2nc3c(c(=O)n(C)c(=O)n3C)n2CC(N)=O)CC1 | -4 | 3 | 4 | nt | 14 | i | -16 | -7

Next records follow:
SMILES | MT1-MMP act inh | MT1-MMP act inh RFP | CSC inhib | Env fusion inh | eIF4H inh | Rce1 inh | Yeast UUG start | PABP polyA inh
Cc1ccc(-c2cc(C(=O)NN)n[nH]2)o1 | 2 | 1 | 9 | 4 | 2 | i | -19 | 0
COc1ccccc1N(C)S(=O)(=O)c1ccc(C(=O)N(C)Cc2cccc(F)c2)cc1 | 0 | -5 | nt | 7 | nt | nt | -4 | nt
O=C(CCC1CCCCC1)Nc1ccccc1-c1ccccc1 | -9 | -1 | 7 | -145 | -4 | i | -7 | 3
CCOc1ccc(-c2nnc3ccc(SCC(=O)N4CCCCC4)nn23)cc1 | 1 | 0 | -5 | -224 | 0 | i | -7 | -4
Brc1ccc(-c2nnc(-c3ccccc3)o2)o1 | -1 | 5 | 2 | -57 | -1 | i | -33 | 2
CCNc1nc2cccnc2s1 | -1 | 1 | -11 | -16 | -10 | i | -22 | -5
O=[N+]([O-])c1ccc(NCc2ccc3c(c2)OCO3)cc1 | 2 | -2 | 1 | -11 | -8 | i | nt | 10
Cc1nc2ccccc2c(=O)n1NC(=O)c1ccc(C(C)(C)C)cc1 | 4 | 1 | -10 | 1 | 2 | i | -23 | 22
CC(=O)Nc1ccc(S(=O)(=O)Nc2nc3ccccc3nc2Nc2ccc(C(=O)O)c(O)c2)cc1 | -4 | 4 | -5 | -12 | nt | nt | -6 | nt
COc1cc2c(cc1/C=C/C(=O)O)OC(C)C2 (configuration not stated) | 4 | 4 | -5 | -7 | -6 | ? | -15 | -4
O=C(CSc1ccc(-c2cccnc2)nn1)Nc1ccc(F)cc1 | 1 | 0 | 4 | -3 | 0 | i | -19 | -7
O=C(OC1CCOC1=O)c1ccc2ncsc2c1 (configuration not stated) | -4 | 1 | -4 | -81 | -2 | i | -21 | -1
